# AF4-AF9 inh – inhibitors of AF4 peptide binding to AF9, primary screen, biochemical, AlphaScreen, biotin-AF4 peptide, FLAG-AF9, single point | Protein AF-9 (Homo sapiens), P42568 | inhibition, % at 10 µM | hit rate 0.47% among 350,000;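 active = every replicate reaching a set inhibition limit, whatever the replicate mean, cut at about 25% in these data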;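 note: 0% = plate neutral control median and 100% = total signal loss; the record names both 10 and 1 µM as test concentration; the first replicate is given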
# Target sequence (P42568 whole entry, looked up): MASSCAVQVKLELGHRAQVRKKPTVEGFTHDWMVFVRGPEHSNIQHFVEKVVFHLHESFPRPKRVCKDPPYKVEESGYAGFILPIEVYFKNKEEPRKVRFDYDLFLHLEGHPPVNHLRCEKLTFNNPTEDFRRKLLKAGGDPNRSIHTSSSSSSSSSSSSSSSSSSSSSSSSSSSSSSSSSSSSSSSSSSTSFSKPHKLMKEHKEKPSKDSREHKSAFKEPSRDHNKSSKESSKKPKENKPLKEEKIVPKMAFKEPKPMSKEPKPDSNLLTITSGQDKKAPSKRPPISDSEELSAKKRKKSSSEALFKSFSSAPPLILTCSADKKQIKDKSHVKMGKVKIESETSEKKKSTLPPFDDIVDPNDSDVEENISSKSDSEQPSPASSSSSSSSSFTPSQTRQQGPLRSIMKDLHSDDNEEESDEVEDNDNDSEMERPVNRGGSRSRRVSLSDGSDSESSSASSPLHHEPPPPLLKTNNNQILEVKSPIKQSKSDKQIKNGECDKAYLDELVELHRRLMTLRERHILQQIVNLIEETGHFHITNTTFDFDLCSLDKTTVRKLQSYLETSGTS
# Active calls of the source: *; & = joins results of further samples.
# Start of the data: the first two records as a preview:
AF4-AF9 inh,Structure
0.9,COc1ccc(S(=O)(=O)N[C@H]2C=C[C@@H](CC(=O)N3CCC(Cc4ccccc4)CC3)O[C@@H]2CO)cc1
10.6&4.9,COc1ccc(NC(=O)N2[C@@H]3CNC[C@H]2C3c2ccc(-c3ccccc3)cc2)cc1 (stereo not given in full)

# Main list, from the first entry:
AF4-AF9 inh,Structure
0.9,COc1ccc(S(=O)(=O)N[C@H]2C=C[C@@H](CC(=O)N3CCC(Cc4ccccc4)CC3)O[C@@H]2CO)cc1
10.6&4.9,COc1ccc(NC(=O)N2[C@@H]3CNC[C@H]2C3c2ccc(-c3ccccc3)cc2)cc1 (stereo not given in full)
0.0,CCN(CC)C(=O)[C@H]1C[C@H](CC(=O)NCCN2CCOCC2)C(=O)N2CCc3c([nH]c4ccc(Cl)cc34)[C@]12C
-1.1,COc1ccc([C@H]2CC(=O)C[C@@H](CCn3cc(CCc4ccccc4)nn3)O2)cc1
-1.2,O=C(NC1CCCC1)N1CC(=O)N2[C@H](C1)[C@H](c1ccc(-c3ccc(F)cc3)cc1)[C@@H]2CO
-1.9,O=C(C1CCCC1)N1CC2(C1)[C@H](c1ccccc1)[C@@H](CO)N2Cc1nccs1
-0.4,O=C(C[C@@H]1CC[C@@H]2[C@H](COC[C@@H](O)CN2C(=O)C2CC2)O1)NCc1ccccc1Cl
2.1,Cc1ccccc1-c1ccc2c(c1)O[C@@H](CN(C)C(=O)Nc1ccc(F)cc1)[C@@H](C)CN([C@H](C)CO)S2(=O)=O
4.2,CC1(C(=O)Nc2ccc3c(c2)OCO3)CCN1C(=O)c1ccccc1 (stereo not given)
-1.5,Cc1noc(C)c1NC(=O)N(C)C[C@@H]1Oc2ccc(NS(=O)(=O)c3c(C)noc3C)cc2CC(=O)N([C@@H](C)CO)C[C@H]1C
-15.4,C[C@H]1CN([C@@H](C)CO)C(=O)c2cc(NS(=O)(=O)c3ccc(F)cc3)ccc2O[C@@H]1CN(C)Cc1ccc(C(=O)Nc2ccccc2N)cc1
2.1,C[C@@H]1CCCCO[C@@H](CN(C)Cc2ccc(C(F)(F)F)cc2)[C@@H](C)CN([C@H](C)CO)C(=O)c2cc(NC(=O)c3ccccc3)ccc2O1
0.7,O=S(=O)(c1ccc(-c2ccccc2)cc1)N1CCN(Cc2ccc(OCCO)cc2)CC1
2.6,Cc1ccc([C@H]2C(C(=O)O)=CCN2S(=O)(=O)c2ccc(C)cc2)cc1
2.1,CC(C)C[C@H]1COc2cccc(N3CCCC3)c2S(=O)(=O)N1
-1.3,O=C(NCC[C@H]1CC[C@H](NS(=O)(=O)c2cccc(F)c2)[C@H](CO)O1)C1CCCCC1
-3.0,COc1ccc(CN(C)C[C@@H]2Oc3ccc(NS(=O)(=O)c4cn(C)cn4)cc3C(=O)N([C@H](C)CO)C[C@@H]2C)cc1
17.3,Cc1cccc(-c2ccc([C@@H]3[C@@H](CO)N4C(=O)CN(C(=O)c5cccnc5)C[C@H]34)cc2)c1
12.3,C[C@@H]1CN([C@@H](C)CO)C(=O)c2cc(NS(=O)(=O)c3ccccc3)ccc2O[C@@H](C)CCCCO[C@@H]1CN(C)Cc1ccc2c(c1)OCO2
0.9,Cc1ccc(S(=O)(=O)N(C)C[C@H]2Oc3ccc(NC(=O)CCN4CCOCC4)cc3C(=O)N([C@H](C)CO)C[C@H]2C)cc1
-5.1,CCC(=O)N1[C@@H]2Cn3c(ccc(-c4ccncc4)c3=O)[C@H]1[C@@H](C(=O)NC1Cc3ccccc3C1)[C@@H]2CO
-2.0,C[C@H]1CN([C@@H](C)CO)C(=O)c2ccccc2-c2ccccc2CO[C@H]1CN(C)S(=O)(=O)c1cn(C)cn1
3.7,O=C(C[C@@H]1C[C@@H]2c3cc(NS(=O)(=O)c4ccccc4)ccc3O[C@@H]2[C@@H](CO)O1)NCC1CC1
-0.9,CN(C)CC(=O)N[C@H]1CC[C@H](CCNC(=O)C2CCCC2)O[C@@H]1CO

# 4 entries already listed, arranged by count of non-hydrogen atoms, ascending:
AF4-AF9 inh,Structure
-0.9,CN(C)CC(=O)N[C@H]1CC[C@H](CCNC(=O)C2CCCC2)O[C@@H]1CO
-1.3,O=C(NCC[C@H]1CC[C@H](NS(=O)(=O)c2cccc(F)c2)[C@H](CO)O1)C1CCCCC1
-5.1,CCC(=O)N1[C@@H]2Cn3c(ccc(-c4ccncc4)c3=O)[C@H]1[C@@H](C(=O)NC1Cc3ccccc3C1)[C@@H]2CO
0.9,Cc1ccc(S(=O)(=O)N(C)C[C@H]2Oc3ccc(NC(=O)CCN4CCOCC4)cc3C(=O)N([C@H](C)CO)C[C@H]2C)cc1

# New compounds follow
AF4-AF9 inh,Structure
0.0,O=C(C[C@H]1CC[C@@H]2[C@H](COC[C@@H](O)CN2Cc2nccs2)O1)NCc1ccccc1F
-2.4,C[C@H]1CN([C@@H](C)CO)C(=O)c2cc(NC(=O)Nc3ccccc3)ccc2O[C@H]1CN(C)C(=O)NC1CCCCC1
-15.7,O=C(C[C@H]1CC[C@H](NC(=O)c2ccncc2)[C@H](CO)O1)NCc1ccncn1
-0.6,N#C[C@H]1[C@@H](c2ccc(-c3ccccc3F)cc2)[C@@H](CO)N1C(=O)C1CC1
-1.3,COc1ccc(C2CC(=O)Oc3ccc(OC)cc32)cc1 (stereo not given)
-2.2,COc1ccc(S(=O)(=O)N(C)C[C@H]2Oc3cc(C#CC4CCCC4)ccc3S(=O)(=O)N([C@H](C)CO)C[C@@H]2C)cc1
4.8,C[C@H]1CN([C@@H](C)CO)S(=O)(=O)c2ccc(C3=CCCCC3)cc2O[C@H]1CN(C)C(=O)Cc1cccnc1
-1.7,CCCN1[C@@H]2c3ccc(-c4cccnc4)c(=O)n3C[C@@H]2[C@@H](CO)[C@@H]1C(=O)NC1CCC1
-0.7,C[C@@H]1CN([C@H](C)CO)C(=O)c2cc(NS(=O)(=O)c3ccc(Cl)cc3)ccc2O[C@@H]1CN(C)S(=O)(=O)c1ccc(F)cc1
-0.5,C[C@H](CO)N1C[C@H](C)[C@H](CN(C)C(=O)c2ccccc2)Oc2cc(-c3cccc(C#N)c3)ccc2S1(=O)=O
-1.0,COC(=O)[C@]12CCCCC=C1N(Cc1ccco1)C(=O)[C@H](CC(=O)NCCc1ccccc1OC)C2
-0.8,CCN1[C@@H]2c3ccc(-c4cccnc4)c(=O)n3C[C@@H]2[C@@H](CO)[C@@H]1C(=O)NCCc1cn(C)cn1
1.9,COc1ccc(CN(C)C[C@H]2Oc3c(NS(=O)(=O)c4cccs4)cccc3C(=O)N([C@H](C)CO)C[C@H]2C)cc1
-0.7,CC(C)C[C@@H]1COc2cc(N3CCC[C@@H]3CO)ccc2S(=O)(=O)N1
-1.5,CC(C)C1C(=O)N(Cc2cn(CCC3OCCO3)nn2)CCS(=O)(=O)N1Cc1ccc(-c2ccncc2)cc1 (stereo not given)
-0.4,Cc1cccnc1NC(=O)c1ccc(S(=O)(=O)N2CCCC2)cc1
-1.2,C[C@H](CO)N1C[C@H](C)[C@@H](CN(C)C(=O)Nc2ccc3c(c2)OCO3)Oc2c(NS(=O)(=O)c3cccs3)cccc2C1=O
3.1,O=C1[C@@H]2[C@@H](CC(COc3ccccc3)=C([C@H](O)c3ccccc3)[C@@H]2CO)C(=O)N1Cc1ccccc1
-0.1,CO[C@H](CN(C)Cc1nccs1)[C@H](C)CN([C@@H](C)CO)S(=O)(=O)c1ccc(C)cc1
-1.7,CC(C)NC(=O)N(C)C[C@@H]1OCCCC[C@H](C)Oc2ccc(N(C)C)cc2C(=O)N([C@@H](C)CO)C[C@@H]1C
-2.5,O=C(C[C@H]1CC[C@@H](NC(=O)c2ccncc2)[C@@H](CO)O1)Nc1ccc(-c2ccccc2)cc1
-2.8,Cc1noc(C)c1NC(=O)N(C)C[C@@H]1Oc2ccc(NC(=O)Nc3ccccc3)cc2C(=O)N([C@H](C)CO)C[C@@H]1C
-45.1,CC=Cc1ccc2n(c1=O)C[C@@H]1[C@@H](CO)[C@H](C(=O)NCc3ccc(F)cc3)[C@H]2N1CC (mixture of isomers)
5.3,CCCN(C)C[C@H]1OCCCC[C@@H](C)Oc2ccc(NC(=O)Nc3ccc(OC)cc3)cc2C(=O)N([C@H](C)CO)C[C@@H]1C

# Taken from above.
# AF4-AF9 inh, `CO[C@H](CN(C)Cc1nccs1)[C@H](C)CN([C@@H](C)CO)S(=O)(=O)c1ccc(C)cc1` reads -0.1
# AF4-AF9 inh, `CC(C)NC(=O)N(C)C[C@@H]1OCCCC[C@H](C)Oc2ccc(N(C)C)cc2C(=O)N([C@@H](C)CO)C[C@@H]1C` reads -1.7
# AF4-AF9 inh, `CC(C)C[C@@H]1COc2cc(N3CCC[C@@H]3CO)ccc2S(=O)(=O)N1` reads -0.7

# (continued)
AF4-AF9 inh,Structure
-2.6,CCCNC(=O)C[C@@H]1C[C@H]2c3cc(NC(=O)C4CCOCC4)ccc3O[C@H]2[C@@H](CO)O1
-1.7,Cc1ccc(NC(=O)COc2ccccc2C#N)cc1S(=O)(=O)N1CCCCCC1
2.6,C[C@H](CO)N1C[C@H](C)[C@H](CN(C)C(=O)CC2CC2)Oc2cc(-c3ccccc3)ccc2S1(=O)=O
0.5,CCCN(C)C[C@@H]1Oc2ncc(-c3ccccc3OC)cc2C(=O)N([C@H](C)CO)C[C@@H]1C
6.8,O=C(Nc1ccc2c(c1)OCCO2)C(c1cc2ccccc2o1)N1CCN(C/C=C/c2ccccc2)CC1 (stereo not given)
0.9,N#C[C@@H]1[C@@H](c2ccccc2)[C@@H](CO)N1S(=O)(=O)c1cccc(F)c1
0.4,CCC(=O)N[C@H]1C=C[C@H](CC(=O)NCc2ccc(OC)cc2)O[C@H]1CO
3.0,CO[C@H]1CN(C)C(=O)c2cc(NC(C)=O)ccc2OC[C@H](C)N(C(=O)Cc2cccnc2)C[C@H]1C
9.9,COc1ccc(C(c2nnnn2C2CCCCC2)N2CCN(C/C=C/c3ccccc3)CC2)cc1 (stereo not given)
-0.1,CC(C)C(=O)N1CCC1(C)C(=O)NCc1ccc(F)cc1Cl (stereo not given)
-0.5,C[C@H](CO)N1C[C@H](C)[C@@H](CN(C)C)Oc2cc(-c3ccncc3)ccc2S1(=O)=O
-3.1,COc1ccc(C(=O)NCc2ccc(C)cc2)cc1S(=O)(=O)N1CCOCC1
3.0,CC(C)NC(=O)Nc1ccc2c(c1)CC(=O)N([C@H](C)CO)C[C@@H](C)[C@H](CN(C)Cc1ccc(-c3ccccc3)cc1)O2
0.3,C[C@@H]1CN([C@@H](C)CO)C(=O)c2cc(C3=CCCC3)cnc2O[C@@H]1CN(C)C(=O)Nc1cccc(F)c1
-8.2,O=C(c1ccncc1)N1CCCCN2[C@H](CO)[C@H](c3ccc(-c4ccccc4)cc3)[C@@H]2C1
-1.8,CO[C@@H]1CN(C)C(=O)c2ccc(NC(=O)Nc3cc(F)ccc3F)cc2OC[C@H](C)N(C(=O)c2ccccn2)C[C@H]1C
0.4,Cc1ccc(NC(=O)c2ncn(CCCN(C)CCc3ccccn3)n2)cc1C
-1.2,C[C@H](NC(=O)N(C)C[C@H]1OCc2ccccc2-c2c(n(C)c3ccccc23)C(=O)N([C@H](C)CO)C[C@@H]1C)c1ccccc1
1.3,COc1ccc(S(=O)(=O)Nc2ccc3c(c2)C(=O)N([C@H](C)CO)C[C@@H](C)[C@H](CN(C)S(=O)(=O)c2ccc(C)cc2)OCCCC[C@@H](C)O3)cc1
4.8,CCc1nc2c(OCc3cccc(Cl)c3)cccn2c1N(C)C(=O)CC(C)C
-1.7,C[C@H](CO)N1C[C@H](C)[C@H](CN(C)C(=O)Nc2ccccc2)OCCCC[C@H](C)Oc2ccc(NC(=O)CCC(F)(F)F)cc2C1=O
2.7,Cn1cnc(S(=O)(=O)N2CCCCN3[C@H](CO)[C@@H](c4ccc(-c5ccc(F)cc5)cc4)[C@H]3C2)c1
0.2,COCCNC(=O)C1(C)CCCN(C(=O)c2cccc(C(F)(F)F)c2)C1 (stereo not given)
-1.9,C#CCNC(=O)C1=C[C@H](c2ccc(C#C)cc2)C[C@H](OCCCCO)O1
-10.0,C[C@@H]1CN([C@H](C)CO)C(=O)c2cccc(NC(=O)c3ccncc3)c2O[C@@H]1CN(C)S(=O)(=O)c1cccs1
-2.0,COCC(=O)Nc1ccc2c(c1)C(=O)N(C)C[C@@H](OC)[C@H](C)CN(Cc1ccncc1)[C@@H](C)CO2
2.1,CC(C)NC(=O)N(C)C[C@H]1OCCCC[C@@H](C)Oc2ccc(NC(=O)Nc3ccc(F)cc3)cc2C(=O)N([C@H](C)CO)C[C@@H]1C
-6.2,CCN(CC)CC(C)(C)C(=O)/C=C/c1ccc(/C=C/C(=O)C(C)(C)CN(CC)CC)cc1
-5.5,C[C@H](CO)N1C[C@H](C)[C@@H](CN(C)C(=O)Nc2ccc(C(F)(F)F)cc2)OCCCC[C@H](C)Oc2ccc(NS(=O)(=O)c3ccccc3)cc2C1=O
19.2,C[C@@H]1CN([C@H](C)CO)C(=O)c2cc(/C=C/c3ccccc3)cnc2O[C@H]1CN(C)Cc1ccccc1
-2.2,C[C@H](O)C#Cc1ccc2c(c1)O[C@@H](CN(C)C(=O)Nc1ccccc1)[C@@H](C)CN([C@@H](C)CO)S2(=O)=O
23.5,C[C@@H]1CN([C@H](C)CO)S(=O)(=O)c2ccc(/C=C/c3ccccc3)cc2O[C@@H]1CN(C)CC1CC1
16.8,COC(=O)C1=C(C)N(Cc2cccc(C(F)(F)F)c2)C(=NCc2ccc(OC)cc2)NC1c1ccccc1 (stereo not given)
-9.7,CN(C)S(=O)(=O)c1ccc(/C(O)=C2/C(=O)C(=O)N(CCN3CCCCC3)C2c2cccnc2)cc1 (stereo not given)
1.1,CCCNC(=O)[C@H]1[C@H](CO)[C@H]2Cn3c(ccc(-c4ccccc4F)c3=O)[C@@H]1N2CC1CC1
-3.0,CCC(=O)N(C)C[C@H]1Oc2ncc(-c3ccc(C(=O)N(C)C)cc3)cc2C(=O)N([C@@H](C)CO)C[C@H]1C
-2.7,Cc1cccc(CN2CCN(C3CN(Cc4cn(Cc5ccccc5F)nn4)S(=O)(=O)C3)CC2)c1 (stereo not given)

# High-throughput results from PubChem BioAssay.

# Only part of the results is shown. The share of hits here may be higher or lower than overall.
